# PrP 5UTR inh = inhibition of PrP 5' UTR reporter expression | AID 488862, 2010 | inhibition, % (no concentration beside the values) | cell-based PrP 5' UTR mRNA reporter, plate reader | 340,000 tested, 0.35% active;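 active = every replicate at 50% or more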;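 also: 0 = median of the neutral control wells; tested in H4 reporter cells; numbers are from one replicate; inactives centre near -14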
# BJeLR lethal = MLPCN primary cell-based screen for lethality selective to Ras in HRASV12 cells. BJeLR (HRASV12) viability, CellTiter-Glo ATP luminescence, 48 h; reference of the scale not given here. inhibition, % (concentration not given with the values). 300,000 tested, 0.17% active;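 active = replicate mean above 50%; inconclusive = above 50% but judged a plate artefact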;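 also: 50 nL library stock added to about 25 µL; numbers are from one replicate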
# Sa ugtP lethal = growth inhibition of ugtP-null S. aureus, primary screen, RN4220 ugtP deletion, OD600 | 16 h; some inactives read as strong as hits | growth inhibition, % (no concentration beside the values) | 330,000 tested, 0.54% active | AID 1259309, 2017;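 active = z-score under -3 and OD600 up to 0.15 on both plates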;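 also: plate controls were untreated wells for no effect and antibiotic for full effect; wells of about 80 µL received 100 nL stock; the first replicate is given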
# Bead autofluor = compound fluorescence in toxin protease inhibitor counterscreen; compound autofluorescence counterscreen, microsphere flow cytometry; active compounds read high; fluorescence intensity (no concentration beside the values); 360,000 tested, 3.1% active;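 active = at least 3 SD above the mean of all compounds, about 16000 in these data; inconclusive = too few beads counted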;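 also: 100 nL of 1 mM stock went into each well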
# RN4220 kill = growth inhibition of S. aureus RN4220, primary screen, OD600; 330,000 tested, 0.33% active; inhibition, % (test concentration not listed); 16 h;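 active = z-score of -3 or lower and OD600 up to 0.18 on both plates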;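 also: plate controls were untreated cells for no effect and reference antibiotic for full effect; stock transfer was 100 nL into about 80 µL; one replicate is shown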
# Mtb hypoxia rep = PubChem AID 1159583 | M. tuberculosis hypoxia-regulated fluorescent reporter, fluorescence | fluorescence inhibition, % (test concentration not listed) | 300,000 tested, 0.1% active;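 active = 35 to 45% if threefold the growth effect, above 45% if 1.5-fold the growth effect; inactive = the rest, general growth blockers included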;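 also: wells of about 50 µL received 100 nL stock; 0% = vehicle wells and 100% = reference inhibitor wells; whole bacteria with a GFP reporter of the hypoxia response; strong numbers were not always called active; many hits fall short of the cut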
# Mtb hypoxia rep growth = second read-out of Mtb hypoxia rep, no call of its own (marks repeat the call); growth inhibition, %; measured here: M. tuberculosis growth (absorbance);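 0% = vehicle and 100% = reference antibiotic; read after six days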
# * hit, by the source's call; ? = inconclusive; . = not tested or not shown; & = joins results of further samples.
# Value order – BJeLR lethal	Bead autofluor	Sa ugtP lethal	Mtb hypoxia rep growth	RN4220 kill	PrP 5UTR inh	Mtb hypoxia rep
CS(=O)(=O)N1N=C(c2ccco2)CC1c1ccc(Br)cc1 (stereo not drawn)
    3	2700	-4	-1	13	-24	-2
CN(C(=O)c1cccc(NC(=O)Cc2ccc(NC(=O)C3CCN(C(=O)C4CCC4)CC3)cc2)c1)C1CC1
    .	3402	-4	2	3.9	-3	-2
CN(C)CCNc1ncnc2oc(-c3ccccc3)c(-c3ccccc3)c12
    4	3931	3	0	-0.6	-24	5
COc1ccc(-c2noc(CCc3ccccc3)n2)cc1
    -3	3225	.	.	.	-53	.
CCC(C)C(NC(=O)C1CCN(C(=O)C(NS(=O)(=O)c2ccc(C)cc2)C(C)C)CC1)C(=O)O (stereo not drawn)
    .	.	-2	12	2.1	.	9
Cn1cc(Br)c(-c2cccc(N3C(=O)CC(C)(C)CC3=O)c2)n1
    -3	4269	3	5	4.7	-29	-6
Cc1ccc(NC(=S)NC(=O)c2cncc(Br)c2)cc1Cl
    4	3737	9	34	2.7	.	25
O=C(OCC(O)C(O)C(O)C(SCc1ccccc1)SCc1ccccc1)c1ccccc1 (stereo not drawn)
    .	3792	-24	13	4.0	-16	-5
c1ccc(CSc2ccc3nnc(-c4cccnc4)n3n2)cc1
    -1	2466	0	6	3.4	2	21
S=C1NNC2(CC3CC2C2CCCC32)NN1 (stereo not drawn)
    -4	3139	4	2	-0.8	-20	0
C(=N\Nc1nc2ccccc2[nH]1)/c1cccs1
    -3	2595	.	.	.	-98	.
O=C(OCc1nc2ccsc2c(=O)[nH]1)c1ccccc1
    -12	5709	5	4	0.9	-27	4
O=C(O)c1ccc(NC(=S)N2CCCCC2)cc1
    3	3617	3	-2	1.0	-7	-7
CCOC(=O)C1CCCN(C/C=C/c2ccccc2[N+](=O)[O-])C1 (stereo not drawn)
    -11	16661*	-1	6	7.0	-20	-9
CC(=O)c1ccc(NC(=O)CCNC(=O)c2ccc(Cl)cc2)cc1
    -3	4085	11	-5	0.5	-19	1
O=C(COC(=O)/C=C/c1cccc(F)c1)Nc1cccc(S(=O)(=O)NC2=NCCCCC2)c1
    .	.	14	-4	4.6	.	5
CC=CC(=O)Nc1cccc(C2=NOC3(C2)CC(C(N)=O)N(C(=O)C=CCC)C3)c1 (stereo not drawn)
    .	.	-1	8	1.7	.	-10
CC1CCCC(C)N1C(=O)COC(=O)c1c[nH]c2ccccc12 (stereo not drawn)
    .	5284	0	10	1.2	-5	-5
CCOC(=O)c1cc2sc(C)cc2n1CC(=O)NCc1ccc(F)cc1
    1	9428	1	1	0.6	-8	-4
CC(=O)N1CCc2cc(Br)cc(S(=O)(=O)NCCCN3CCC(C)CC3)c21
    .	3748	8	.	3.8	-16	.
COc1cccc(C(=O)C2CCCN(Cc3cccc(OCCO)c3)C2)c1 (stereo not drawn)
    1	.	7	0	2.2	-21	9
CCN(CC)C(=O)[C@H]1CC(CC(=O)NC(C)(C)C)C(=O)N2CCc3c([nH]c4ccc(OC)cc34)[C@]12C (stereo partly drawn)
    .	2985	2	-1	4.1	-6	-13
COC(=O)NC(c1ccccc1)[C@@]1(C)CC1C(C)C(=O)Nc1ccc2ccccc2c1 (stereo partly drawn)
    .	.	1	14	-1.1	.	19
CCCC(=O)Nc1c2c(nn1-c1ccc(OC)cc1)CS(=O)(=O)C2
    -2	19921*	11	4	1.0	-22	5
CC(=O)Nc1ccc(Sc2ccccc2C(=O)O)cc1
    -13	1990	6	-7	-0.5	-1	-8
O=C1C(Cl)=C(NCCN2CCOCC2)C(=O)c2ccccc21
    10	3943	6	-2	18	-34	1
CCCCNC(=O)c1oc2ccc(S(=O)(=O)N3CCCC3)cc2c1C
    -11	4419	-3	2	3.7	-3	9
C=CCc1cccc(CNc2nc3ccccc3n2C(C)C)c1O
    11	23489*	0	1	-6.9	5	3
CCCn1c(CCl)nc2cc(S(=O)(=O)N3CCOCC3)ccc21
    .	3591	4	5	5.2	-20	6
O=C1C(=O)N(c2ccccc2)C(c2ccccc2[N+](=O)[O-])/C1=C(\O)c1ccccc1 (stereo not drawn)
    4	4221	0	-1	3.5	-34	0
Cn1c(SCC(=O)Nc2ncc(C(F)(F)F)cc2Cl)nnc1-c1ccc(Cl)cc1
    -5	9313	8	-1	4.7	-8	14
CCNC(=O)CSc1nnc(-c2ccccc2Br)n1-c1cccc(C(F)(F)F)c1
    -13	2126	1	9	1.6	-22	-3
Cc1cc2c(cc1C)C(c1ccccc1Br)CC(=O)N2 (stereo not drawn)
    1	2035	-20	2	2.0	-7	1
Cc1[nH]c(N)nc(=S)c1CCCNc1ccccc1
    .	4062	1	-2	0.1	-21	3
O=C(O)Cn1nnnc1SCC(=O)Nc1ccc(OC(F)(F)F)cc1
    9	4246	2	.	0.5	-7	.
CCN(CC)Cc1cc(NC2=NS(=O)(=O)c3ccccc32)ccc1OC(=O)c1ccccc1
    0	2241	8	-1	0.2	-18	4
CCCc1n[nH]c2c1C(=NOCC)CC(C)(C)C2
    .	.	14	11	7.3	.	-6
CN1CCCC(OC(=O)c2cc(Cl)cc(Cl)c2)C1 (stereo not drawn)
    7	4381	10	1	7.0	-7	-6
CC1CC(C)CN(C(=O)CSc2n[nH]c(N)n2)C1 (stereo not drawn)
    .	4535	6	5	3.6	-31	-2
CCCN(CC(=O)Nc1ccc(F)c(F)c1F)Cc1cc(=O)n2ccsc2n1
    -1	4354	1	4	0.6	-8	7
COC(=O)C1=NNC2(c3ccc(C)cc3)C(=O)N(c3cccc(C)c3C)C(=O)C12 (stereo not drawn)
    7	7372	8	-2	3.2	-22	6
COC(=O)c1ccc(C2CC(=O)O2)cc1 (stereo not drawn)
    .	.	5	3	5.9	.	5
Cc1cc2nnc(SCC(=O)Nc3cccc(S(=O)(=O)N4CCOCC4)c3)n2c2ccccc12
    -2	2085	26	1	2.0	-14	2
Cc1c(OCC(=O)NCCCN2CCCC2=O)ccc2c3c(c(=O)oc12)CCC3
    -2	6306	2	-5	0.1	-17	-1
COc1cccc(N=Cc2nc(-c3ccccc3)oc2OC(C)=O)c1
    0	3729	4	-1	2.1	-4	14
Cc1onc(-c2c(Cl)cccc2Cl)c1C(=O)Nc1ccc2c(C(F)(F)F)cc(=O)oc2c1
    1	5901	6	-2	-0.4	-20	-7
COc1ccc(C=O)cc1OS(=O)(=O)c1ccc(NC(C)=O)cc1
    -4	2671	-4	6	0.3	-4	7
O=C(Cc1nnc(NC(=O)c2ccccc2)s1)N/N=C\c1ccc(O)c(O)c1
    -13	3024	.	.	.	-29	.
c1ccc(Nc2c3c(nc4ncnn24)CCC3)cc1
    0	10506	1	5	2.1	-8	5
C[C@H](NC(=O)c1ccc(C(C)(C)C)cc1)C(=O)N1CCOCC1
    .	3941	5	1	8.9	-21	0
Cc1cc(C)cc(NC(=O)CCC(=O)Nc2nnc(C(C)C)s2)c1
    -11	4873	6	-2	1.9	-4	13
COC(=O)[C@@H](N)CCCN=C(N)N[N+](=O)[O-]
    3	5645	.	.	.	-30	.
N#CC(C#N)=C1C=C2C=C(N3CCOCC3)CCC2CC1 (stereo not drawn)
    0	26074*	8	1	-1.7	1	-452
O=C(CCNS(=O)(=O)c1cccc2nsnc12)NCCc1ccccc1
    -7	4237	1	8	-4.1	-8	1
CN(C)CP(=O)(Nc1ccccc1)N(C)C (stereo not drawn)
    0	3289	4	1	-6.2	-7	-1
CN(C)CCCN(C(=O)c1ccco1)c1nc2c(F)cc(F)cc2s1
    26	?	2	18	6.2	-20	10
O=C(CSC(=S)N1CCCC1)Nc1ccc(Br)cc1Cl
    -9	?	7	5	0.4	-26	-4
COc1ncccc1C(=O)N1CCCC(C(=O)c2cc(F)ccc2F)C1 (stereo not drawn)
    -1	4162	0	8	4.9	-17	12
Cc1c(Cl)cccc1Nc1nc(N)nc(CN2CCCCCC2)n1
    -2	.	-1	7	-0.4	-8	9
N#Cc1ccccc1Sc1ccccc1C(=O)OCC(=O)NC12CC3CC(CC(C3)C1)C2
    -8	2015	-11	3	2.3	10	5

# The results go on.
# Value order – BJeLR lethal	Bead autofluor	Sa ugtP lethal	Mtb hypoxia rep growth	RN4220 kill	PrP 5UTR inh	Mtb hypoxia rep
C=Cn1cc[n+](CC(=O)c2ccc(-c3ccccc3)cc2)c1
    1	4305	1	12	3.2	-16	1
CC(SC1CCCC1)C(=O)NC(C)(C#N)C(C)C (stereo not drawn)
    -2	5174	0	13	3.6	-19	13
CCOC(=O)Cn1c(=O)oc2cc(S(=O)(=O)NC3CCCc4ccccc43)ccc21 (stereo not drawn)
    6	5926	8	8	-0.3	-10	9
COc1ccc(C(=O)Nc2ccccc2C(=O)N2CCOCC2)cc1Br
    -14	6254	.	.	.	0	.
C[C@]12CC[C@H](OS(=O)(=O)O)CC1=CC[C@@H]1[C@@H]2CC[C@]2(C)C(=O)CC[C@@H]12
    8&4	5403&5841&5461	.	.	.	-16&-15&-13	.
CC(=O)Nc1cccc(-c2cnc3ccccc3n2)c1
    0	3356	-2	.	4.4	-69	.
COc1ccc2nc(N=Nc3c(O)ccc4ccccc34)sc2c1
    -1	.	-6	4	7.4	.	10
COCC(=O)Nc1cc(OC)cc(OC)c1
    -12	2888	-1	.	1.0	-2	.
COc1ccc(OCC(=O)OCC(=O)NCC2CCCCC2)cc1
    .	6984	18	1	7.0	-11	6
C=C(C)CN(CC)C(=O)Cn1cnc2c(oc3ccccc32)c1=O
    2	6067	-2	-17	-0.2	-13	4
COc1ccc(C=NNC(=O)Cc2n[nH]c(=O)[nH]c2=O)cc1
    .	.	-1	-5	-2.0	.	0
CS(=O)(=O)N1CCN(c2nc3ccc(Cl)cc3s2)CC1
    3	4362	6	-11	0.4	-39	5
Cc1cc(C(=O)N2CCN(c3ccccn3)CC2)c(C)o1
    15	21597*	8	-2	1.5	-8	7
O=C(NCc1ccc(Cl)cc1)C(=O)NN=Cc1ccc(Br)cc1
    .	.	8	-17	5.1	.	8
CC(=O)Nc1ccc(NC(=O)CSc2ccc3nnc(CCNS(=O)(=O)c4ccc(C)cc4)n3n2)cc1
    -4	4139	1	-6	-1.9	-5	-8

# Quoted at random: three entries already listed.
# Value order – BJeLR lethal	Bead autofluor	Sa ugtP lethal	Mtb hypoxia rep growth	RN4220 kill	PrP 5UTR inh	Mtb hypoxia rep
CC(=O)Nc1ccc(NC(=O)CSc2ccc3nnc(CCNS(=O)(=O)c4ccc(C)cc4)n3n2)cc1
    -4	4139	1	-6	-1.9	-5	-8
COc1ccc2nc(N=Nc3c(O)ccc4ccccc34)sc2c1
    -1	.	-6	4	7.4	.	10
CC(=O)Nc1cccc(-c2cnc3ccccc3n2)c1
    0	3356	-2	.	4.4	-69	.

# (next part)
# Value order – BJeLR lethal	Bead autofluor	Sa ugtP lethal	Mtb hypoxia rep growth	RN4220 kill	PrP 5UTR inh	Mtb hypoxia rep
CCOc1ccc(NC(=O)NCc2ccc3c(c2)OCO3)cc1
    -12	6031	4	9	2.7	-10	8
CCO[C@@H]1OC(C(N)=O)=C[C@H](c2coc3ccccc3c2=O)[C@H]1CCCO
    -3	3901	.	.	.	-12	.
CCc1ccc(C(=O)COc2ccc(NC(C)=O)cc2)cc1
    3	24015*	3	12	12	-6	7
CC(=O)Nc1ccc(C(=O)CSc2nnc(-c3ccc(O)cc3)n2CC2CCCO2)cc1 (stereo not drawn)
    -1	7944	-18	8	5.9	-9	-4
CNC(=S)N1N=C(c2ccc(C)cc2)CC1c1ccc(OC)cc1 (stereo not drawn)
    -2	2887	2	6	6.0	-20	7
O=C(CSc1nnc2ccc(-c3ccc(Br)cc3)nn12)NCC1CCCO1 (stereo not drawn)
    1	5627	-2	4	-1.0	-14	-19
CC(CCc1ccccc1)NC(=O)COC(=O)c1ccc([N+](=O)[O-])cc1 (stereo not drawn)
    2	2996	1	3	2.1	-7	3
Cc1cc(C)cc(NC(=S)NCC2CCCO2)c1 (stereo not drawn)
    0	5641	6	.	5.2	-11	.
O=C(O)c1ccccc1NS(=O)(=O)c1ccc2ccccc2c1
    0	3424	19	1	8.2	1	3
COc1ccc(CNc2nc3c(c(=O)[nH]c(=O)n3C)n2CCCc2ccccc2)cc1
    -5	3540	2	4	10	-17	-9

# Assay outcomes: PubChem BioAssay, several laboratories
